CtBP-E1A inh: CtBP/E1A binding inhibition. activity change, % (concentration not given with the values). AlphaScreen GST-E1A/His-CtBP binding, 1536-well; active compounds read low; control for the full effect not named in the record. 0.49% of 340,000 active; in the data active means activity change below about -65%; inconclusive means about -30% to -65%; inactive means above about -30%; note: % is set by controls: 0 for no effect and ±100 for the full control effect
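Homogeneous bead-based format: GST-tagged E1A captured on glutathione donor beads, His-tagged CtBP on nickel acceptor beads; compounds precede bead addition by 2 h at 37 °C.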
TRPML1 ag: activates the human TRPML1 channel | AID 624414 | activation, % (no concentration beside the values) | Q9GZU1 | 0.12% of 410,000 active | TRPML1-expressing cells, Ca2+ dye fluorescence, FDSS; host cell line not named in the record; reference of the full effect not given here; in the data active = activation above about 50%; inconclusive = about 30% to 50%; inactive = below about 30%; note: 0% is about no effect; the text of the record puts the active cut at 80%
Target sequence (Q9GZU1 whole entry, looked up): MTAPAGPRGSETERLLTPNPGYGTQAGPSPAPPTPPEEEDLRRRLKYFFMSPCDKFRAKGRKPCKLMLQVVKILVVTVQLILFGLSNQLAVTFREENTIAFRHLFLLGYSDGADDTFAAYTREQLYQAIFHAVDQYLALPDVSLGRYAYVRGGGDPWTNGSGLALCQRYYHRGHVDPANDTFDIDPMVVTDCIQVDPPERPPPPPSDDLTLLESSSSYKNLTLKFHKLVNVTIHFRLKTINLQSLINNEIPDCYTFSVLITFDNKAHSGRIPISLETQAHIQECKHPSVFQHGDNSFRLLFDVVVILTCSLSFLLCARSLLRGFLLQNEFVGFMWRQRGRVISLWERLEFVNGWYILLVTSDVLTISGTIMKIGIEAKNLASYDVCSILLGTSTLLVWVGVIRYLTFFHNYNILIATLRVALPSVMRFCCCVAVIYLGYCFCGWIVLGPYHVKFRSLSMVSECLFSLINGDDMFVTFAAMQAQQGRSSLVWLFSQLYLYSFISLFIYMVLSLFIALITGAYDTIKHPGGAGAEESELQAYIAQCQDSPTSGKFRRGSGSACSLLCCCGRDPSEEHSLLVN
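Tet-induced TRPML1-DL cells, 1,500 per well, cultured overnight, were loaded with a no-wash Ca2+ dye for 45–90 min. Calcium fluorescence was recorded on the FDSS for 110 s after compound addition, before the EC80 agonist (4 uM 54-4) was added.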
D2 potentiator: potentiates the human D2 dopamine receptor allosterically. P14416. DiscoveRx D2 beta-arrestin cells, luminescence, 90 min; 100% = 57 uM dopamine signal. potentiation, % (concentration not given with the values). 0.23% of 360,000 active; active = potentiation of 50% or more; inconclusive = 30% to 50%; inactive = 30% or less;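 note: compound concentration not given in the record; tested on top of an EC20 dose of dopamine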
Target sequence (P14416 whole entry, looked up): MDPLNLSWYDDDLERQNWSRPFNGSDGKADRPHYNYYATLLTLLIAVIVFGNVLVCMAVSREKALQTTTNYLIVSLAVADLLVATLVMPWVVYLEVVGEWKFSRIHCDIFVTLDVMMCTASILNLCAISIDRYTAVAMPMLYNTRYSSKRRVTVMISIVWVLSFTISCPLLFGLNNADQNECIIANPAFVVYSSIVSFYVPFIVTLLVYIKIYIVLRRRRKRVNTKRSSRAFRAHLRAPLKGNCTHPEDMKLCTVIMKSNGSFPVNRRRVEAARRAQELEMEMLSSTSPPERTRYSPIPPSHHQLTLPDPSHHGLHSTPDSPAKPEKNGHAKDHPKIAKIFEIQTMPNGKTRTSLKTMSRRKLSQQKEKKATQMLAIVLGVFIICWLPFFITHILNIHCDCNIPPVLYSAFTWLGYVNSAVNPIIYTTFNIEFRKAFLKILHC
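D2 cells co-treated with compound plus 50 nM dopamine (EC20) for 90 min at 37 deg C to detect potentiation. Beta-arrestin recruitment was read as enzyme-fragment luminescence after 1 h at ambient temperature. Full response was set by 57 uM dopamine.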
TRPV1 PAM: human TRPV1 potentiation. Q8NER1. TRPV1-expressing cells, Fluo-8 calcium influx, capsaicin EC20 potentiation; host cell line not named in the record; control for the full effect not named in the record. potentiation, % at 8.33 µM. 0.02% of 320,000 active. AID 540277; active means potentiation above 80%; inconclusive means 30% to 80%; inactive means below 30%; note: 0% is about no effect
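Cells expressing TRPV1 were dye-loaded with Fluo-8 and read kinetically: 10 s baseline, 3 min after compound (agonist portion), then 2 min after EC20 capsaicin (allosteric enhancer portion). Calcium-bound dye fluorescence at 480/520 nm.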
Six1-Eya2 inh: blocks human Six1 binding to Eya2. AlphaScreen GST-Six1/His-Eya2 binding, biochemical; active compounds read low; control for the full effect not named in the record. activity change, % (no concentration beside the values). 0.56% of 360,000 active. AID 651725; in the data active = activity change below about -65%; inconclusive = about -30% to -65%; inactive = above about -30%; note: % is set by controls: 0 for no effect and ±100 for the full control effect
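Homogeneous AlphaScreen proximity assay pairing GST-Six1 with His-tagged Eya2 (added as 5X mix: 250 nM and 500 nM) in 50 mM Tris pH 8.0, 300 mM NaCl, 1 mM TCEP. Glutathione donor and nickel acceptor beads; 1 h, 37 °C, dark.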
TRPML1 blocker: blocks the human TRPML1 channel; TRPML1-inducible cells, Ca2+ dye fluorescence, FDSS; active compounds read low; inhibition of EC80 agonist-evoked calcium signal; Q9GZU1; 0.02% of 390,000 active; activity change, negative = inhibition, % (no concentration beside the values); in the data active means activity change below about -50%; inconclusive means about -30% to -50%; inactive means above about -30%;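 note: stimulus is agonist 54-4 at its EC80 concentration; % is set by controls: 0 for no effect and ±100 for the full control effect; compound concentration not given in the record; the text of the record puts the active cut at -80%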
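Calcium fluorescence in TRPML1-DL cells induced overnight with Tet: a 110 s read after compound pin addition, then a 110 s antagonist read after challenge with 54-4 at 4 uM final (EC80).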
* marks the source's active call; other numbers are inactive results; ? = inconclusive; / = not tested or not shown; & = joins results of further samples. Rows are unselected; about 0.95% have a hit in one of these screens.

nr | mol | CtBP-E1A inh | TRPML1 ag | D2 potentiator | TRPV1 PAM | Six1-Eya2 inh | TRPML1 blocker
1 | CCC(C)[C@H](NC(=O)Nc1ccccc1F)C(=O)O (stereo partly drawn) | -1 | -0.3 | -6 | 7 | 22 | 4
2 | Cc1cc2nc(-c3ccccc3)c(CC(C)(C)C)n2c(C)c1Br | 3 | 1.8 | -2 | / | -2 | /
3 | CC(=O)N1CCN(C(=O)C2CCN(S(=O)(=O)c3ccccc3C(F)(F)F)CC2)CC1 | 3 | 0.6 | 3 | / | 5 | 19
4 | c1ccc(CSc2nnc3ccc(-c4ccncc4)nn23)cc1 | 3 | / | 2 | -8 | -1 | /
5 | CCC(=O)Nc1ccc(NC(=O)c2ccco2)cc1 | 0 | 0.6 | -3 | 2 | 15 | -15
6 | CC(=O)Nc1cccc(-c2ccnc3c2CC(C)(C(=O)Nc2cccc(C(F)(F)F)c2)O3)c1 (stereo not drawn) | -5 | -0.5 | -3 | / | -10 | /
7 | CN(CCOc1ccccc1)C(=O)C1CCC(=O)N(CCCN2CCCC2=O)C1 (stereo not drawn) | 1 | 1.7 | -5 | 5 | 3 | 15
8 | COc1ccc(NC(=O)NCCCN2CCCC2=O)cc1 | -1 | 1.8 | -5 | 8 | 7 | -11
9 | C=CCc1cccc(CNc2c(C)n(C)n(-c3ccccc3)c2=O)c1O | -8 | 2.4 | -12 | -12 | -2 | -20
10 | Cc1ccc(S(=O)(=O)n2nc(OC(=O)C(C)(C)C)cc2N)cc1 | -5 | -0.5 | 17 | 26 | -8 | 1
11 | O=C(O)c1nn(-c2ccc(Cl)cc2)ccc1=O | 6 | 0.1 | -10 | 11 | 3 | 11
12 | COC(=O)c1ccc2c(=O)n(-c3ccccc3)c(=S)[nH]c2c1 | -13 | -0.1 | -11 | 5 | 0 | -1
13 | NC(=O)c1ccccc1NC(=O)Nc1cccc(Cl)c1 | 10 | 0.5 | -4 | 8 | 0 | 14
14 | COc1cc2ncnc(NCc3ccc(C)cc3)c2cc1OC | -13 | -0.6 | -33 | -5 | -16 | -5
15 | CN1C(=O)c2cccc3c(S(=O)(=O)N(C)C)ccc1c23 | -4 | 0.3 | 5 | 15 | 2 | 4
16 | O=C(Nc1ccc(N2CCOCC2)nc1N1CCOCC1)c1cccc(C(F)(F)F)c1 | -1 | 0.3 | -3 | -15 | 1 | 12
17 | O=C1OCC/C1=C1/NCCNC1=O | -11 | -0.7 | -4 | / | -23 | -4
18 | Cc1ccc(S(=O)(=O)N(CC(=O)NN=C2CCN(C)CC2)c2ccc(C(C)C)cc2)cc1 | -19 | -0.4 | 1 | -1 | 9 | 3
19 | Cc1cccc(NC(=O)CSCc2nc3c(nnn3Cc3ccc(F)cc3)c(=O)[nH]2)c1C | -8 | 0.0 | -5 | 13 | 18 | -12
20 | CCN(CC(=O)NCc1cccs1)C(=O)/C=C/c1ccc(OC)cc1OC | -5 | 2.0 | -9 | -18 | 2 | 26
21 | CCOC(=O)c1cc2occc2n1Cc1ccc(F)cc1 | 12 | 4.0 | -5 | -21 | -1 | -2
22 | CCC(C)Sc1nnc(NS(=O)(=O)Cc2ccccc2)s1 (stereo not drawn) | / | / | -3 | 9 | 11 | /
23 | CCOC(=O)CC[C@H](NC(=O)Cn1cnc2c(OCc3ccccc3)ncnc21)C(=O)OCC | 7 | -0.7 | 5 | / | 2 | 2
24 | CCCCN1C(=O)c2ccc(C(=O)Nc3ccc(S(=O)(=O)N(C)C)cc3)cc2C1=O | -9 | -0.4 | -25 | 13 | -9 | 9
25 | CS(=O)(=O)N1CCN(c2ccc(NC(=O)COc3ccccc3[N+](=O)[O-])cc2)CC1 | 7 | 0.0 | 6 | -1 | 0 | -10
26 | CCc1nn(CC(=O)NCCCc2ccccc2)c(=O)c2cc3cc(F)ccc3n12 | -2 | -0.4&0.7 | -5 | 20 | 4 | 4&10
27 | COc1cc2nc(N(CCCN(C)C)C(=O)c3ccc(C(=O)c4ccccc4)cc3)sc2cc1OC | -25 | 1.4 | -33 | 3 | -23 | 18
28 | CCOc1c(O)ccc(C2NC(=O)NC(C)=C2C(=O)OC)c1[N+](=O)[O-] (stereo not drawn) | 0 | 1.9 | -6 | ? | -3 | ?
29 | Cc1cnc(C(=O)Nc2ccc(C)c(S(=O)(=O)N3CCCCC3)c2)cn1 | -3 | 0.5 | -12 | -14 | 5 | 33
30 | O=C(Nc1nnc(C2CCCCC2)s1)c1ccco1 | 0 | 0.6 | -22 | -4 | 28 | 10

Sorted by SMILES length (smallest number first): some entries from above
nr | mol | CtBP-E1A inh | TRPML1 ag | D2 potentiator | TRPV1 PAM | Six1-Eya2 inh | TRPML1 blocker
17 | O=C1OCC/C1=C1/NCCNC1=O | -11 | -0.7 | -4 | / | -23 | -4
8 | COc1ccc(NC(=O)NCCCN2CCCC2=O)cc1 | -1 | 1.8 | -5 | 8 | 7 | -11
4 | c1ccc(CSc2nnc3ccc(-c4ccncc4)nn23)cc1 | 3 | / | 2 | -8 | -1 | /
15 | CN1C(=O)c2cccc3c(S(=O)(=O)N(C)C)ccc1c23 | -4 | 0.3 | 5 | 15 | 2 | 4
9 | C=CCc1cccc(CNc2c(C)n(C)n(-c3ccccc3)c2=O)c1O | -8 | 2.4 | -12 | -12 | -2 | -20
18 | Cc1ccc(S(=O)(=O)N(CC(=O)NN=C2CCN(C)CC2)c2ccc(C(C)C)cc2)cc1 | -19 | -0.4 | 1 | -1 | 9 | 3

(more compounds)
nr | mol | CtBP-E1A inh | TRPML1 ag | D2 potentiator | TRPV1 PAM | Six1-Eya2 inh | TRPML1 blocker
31 | O=C(CCNC(=O)c1ccccc1Cl)Nc1cccc(S(=O)(=O)N2CCOCC2)c1 | 3 | 0.2 | -3 | 18 | 1 | -7
32 | Cc1ccc(/C=N/NC(=O)C(NC(=O)c2ccccc2)c2n[nH]c(=O)c3ccccc23)cc1 (stereo not drawn) | -1 | 1.9 | -1 | 11 | -13 | -12
33 | COc1ccc(CNC(=O)Cn2cc(C)c(=O)[nH]c2=O)cc1 | 7 | 0.0 | / | / | 5 | -7
34 | CN(CCc1ccccc1)C(=O)c1ccc(NC(=O)Cc2cccc([N+](=O)[O-])c2)cc1 | -6 | -0.8 | -11 | / | -15 | -3
35 | CC(NC(=O)c1c(Cl)cnn1C)C1CCCO1 (stereo not drawn) | 1 | -0.2 | -1 | -2 | 6 | -19
36 | Cc1nc(-c2ccc(-c3ccon3)s2)no1 | 0 | -0.7 | -4 | 3 | -1 | -6
37 | CCOc1ccc(NC(=O)COc2ccc(S(=O)(=O)N3CCOCC3)cc2)cc1 | -2 | -0.1 | -13 | / | -3 | 6
38 | O=S(=O)(c1ccc(S(=O)(=O)N(Cc2ccc(F)cc2)C2CCCC2)cc1)N1CCCC1 | 5 | 1.6 | -4 | 7 | 24 | -3
39 | O=C1c2ccccc2CN1CCSC(=S)N1CCOCC1 | 4 | -0.4 | -1 | -11 | 1 | 20
40 | CC1CCN(CC(=O)Nc2ccccc2C(=O)c2ccccc2)CC1 | 3 | -0.1 | -10 | -14 | 4 | -12
41 | O=c1nc(SCc2ccccc2Cl)nc(-c2ccc(Cl)cc2)[nH]1 | 1 | 0.5 | 1 | 3 | 1 | 15
42 | CCc1ccc(-c2cn(C3CCCCC3)c(=S)[nH]2)cc1 | -5 | 1.7 | -9 | 1 | -29 | 17
43 | Cc1cccnc1NC(=O)c1cccc(S(=O)(=O)N2CCCC2)c1 | -1 | -0.7 | -7 | 1 | 0 | 4
44 | O=C(O)CSc1nnc(-c2ccncc2)n1C1CCCCC1 | 2 | -1.0 | 22 | 5 | -3 | -12
45 | O=C(CSc1nc2ccccc2c(=O)n1-c1ccc(F)cc1F)c1c[nH]c2ccccc12 | 2 | -0.3 | 4 | 4 | 4 | 15
46 | O=C(Nc1nnc(SCc2ccccc2)s1)c1ccco1 | 6 | -0.4 | -22 | 8 | 2 | -8
47 | CCn1cc(Cl)c(C(=O)NNC(=O)CCn2ccc([N+](=O)[O-])n2)n1 | 0 | -0.3 | 6 | -10 | 4 | 11
48 | COc1ccc(-c2nnc(SCC(N)=O)n2N)cc1 | 3 | 3.3 | 3 | 11 | 2 | -6
49 | CCN(CC)CCCn1c(=S)[nH]c2cc(C(=O)OC)ccc2c1=O | 7 | -0.7 | -11 | 1 | -2 | 4
50 | O=C(O)/C=C/C(=O)Nc1ccc(NC(=O)c2ccccc2)c(Cl)c1 | -12 | 1.7 | -2 | -19 | 0 | ?
51 | O=C([C@H]1O[C@@H](n2ccc(=O)[nH]c2=O)[C@H](O)[C@@H]1O)N1CCN(c2ccc(Cl)cn2)CC1 | 4 | -0.2 | 0 | / | 7 | /
52 | COc1ccccc1C(=O)NC(=S)Nc1ccc(S(=O)(=O)N2CCN(C)CC2)cc1 | -5 | 0.9 | 23 | -15 | ? | 10
53 | O=C(Cc1cn2ccsc2n1)NCCc1ccc(F)cc1 | 0 | 0.7 | -5 | 4 | -4 | -16
54 | O=C1ON=C(c2ccccc2)/C1=C/c1ccc(OS(=O)(=O)c2ccccc2)cc1 | -13 | 1.1 | -14 | -9 | -2 | -19
55 | CCOc1nc(C)cc(C)c1S(=O)(=O)c1cccc(Cl)c1 | 19 | 3.2 | -2 | 11 | 10 | 8
56 | Cc1cc(C)c2nc(NC(=O)c3ccco3)sc2c1 | / | 0.8 | -6 | -8 | 12 | -1
57 | CC(NC(=O)COC(=O)CSCc1ccccc1)c1ccccc1 (stereo not drawn) | -1 | 0.0 | -35 | 1 | 16 | 11
58 | Cc1onc(-c2ccccc2Cl)c1C(=O)Nc1nn[nH]n1 | 3 | 0.6 | 6 | -5 | 0 | -9
59 | O=C(Nc1cccc(-c2nc3ncccc3o2)c1)c1ccco1 | -26 | 1.1 | -6 | -2 | -21 | 10
60 | CCOC(=O)C1=C(CSc2nc3c(cc2C#N)CN(C)CC3)OC(N)=C(C#N)C1c1ccncc1 (stereo not drawn) | -17 | 0.3 | ? | 7 | -24 | -7
61 | Cn1c(=O)[nH]c2c(nc(-c3ccc(Cl)cc3)n2C)c1=O | -2 | -0.1 | 1 | 1 | -3 | 5

Down the list, as entered above.
Compounds 52–60 in TRPML1 blocker: 10, -16, -19, 8, -1, 11, -9, 10, -7
Compounds 52–60 in CtBP-E1A inh: -5, 0, -13, 19, /, -1, 3, -26, -17
Compounds 52–60 in D2 potentiator: 23, -5, -14, -2, -6, -35, 6, -6, ?

Screening data as filed in PubChem.
